Lassa entry inh – Lassa virus entry inhibition | Lassa virus pseudotype entry inhibition, cell reporter; control for the full effect not named in the record | Potency, µM (top dose mostly 37.9 µM), for the others: at the top dose activity change, negative = inhibition, most hits filed as inhibitors | actives 1.2% (n = 300,000); active means well fitted inhibition curve with a large enough effect; inconclusive means small, poorly fitted or top-dose-only effect, or effect the other way; inactive means flat fitted curve, though single readings scatter; tested in HEK293 cells; note: % is set by controls: 0 for no effect and ±100 for the full control effect; nearly all actives have a fitted effect of over 50% in size; luciferase read-out
Cruzain noTriton – inhibitors of Trypanosoma cruzi cruzain without detergent | P25779 | purified cruzain, Z-FR-AMC fluorescence, no detergent | Potency, µM, for inactives: max response, negative = inhibition, actives largely listed as inhibitors | actives 2.3% (n = 200,000) | AID 1476; active = well fitted curve in the direction sought with a large enough effect; inconclusive = small, poorly fitted or top-dose-only effect, or another doubt; inactive = no such curve, though single readings can be large; an effect the other way counts as inactive or inconclusive;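 note: plate controls were enzyme without inhibitor for no effect and buffer without enzyme for full effect; nearly all actives have a fitted effect of over 40% in size; top concentration of the series not given in the record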
Target sequence (P25779 123-467 limits assumed): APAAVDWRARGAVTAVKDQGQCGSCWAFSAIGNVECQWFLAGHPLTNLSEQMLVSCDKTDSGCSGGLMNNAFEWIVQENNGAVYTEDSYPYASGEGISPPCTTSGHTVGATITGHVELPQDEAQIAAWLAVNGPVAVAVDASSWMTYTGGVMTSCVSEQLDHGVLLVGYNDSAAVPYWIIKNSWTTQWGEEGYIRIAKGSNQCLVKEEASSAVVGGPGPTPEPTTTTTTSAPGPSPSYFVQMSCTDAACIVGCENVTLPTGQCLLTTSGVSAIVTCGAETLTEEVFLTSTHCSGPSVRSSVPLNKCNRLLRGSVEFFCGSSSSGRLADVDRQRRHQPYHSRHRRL
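Detergent-free condition (0.00005% Triton X-100) in acetate buffer pH 5.5 with DTT. 1.5 nM enzyme and compound were pre-mixed 15 min, then 2 uM Z-FR-AMC substrate added; reaction progress from fluorescence change between first and third reads (60 s).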
StopGo reporter – FMDV 2A StopGo reporter, luciferase signal. human cells with a luciferase reporter of 2A StopGo recoding; control for the full effect not named in the record. Potency, µM (doses to about 57.9 µM), without a hit: top-dose signal change, negative = less light. actives 1.2% (n = 410,000). AID 1159524; active = well fitted falling curve with a large enough effect; inconclusive = small, poorly fitted or top-dose-only effect; inactive = no such curve, though single readings can be large or run the other way; tested in HEK293T cells; note: % is set by controls: 0 for no effect and ±100 for the full control effect; nearly all actives have a fitted effect of over 45% in size; luciferase light after 4 h
NS1 inh – blocks influenza NS1 protein function. S. cerevisiae slowed by influenza A NS1, growth recovery by OD600. Potency, µM (series often up to 46.1 µM), without a hit: at the highest dose activity, positive = more growth. actives 0.4% (n = 270,000). AID 2326; note: actives are rising curves; nearly all actives have a fitted effect of over 50% in size
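Growth recovery, yeast-based: influenza A NS1 expressed in S. cerevisiae causes slow growth, and suppressors are detected by OD600. The parent strain without NS1 is used as positive control.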
Cruzain inh Det – blocks cruzain activity in presence of Triton detergent. actives 0.43% (n = 200,000). Potency, µM, for the others: max response, negative = inhibition, actives largely listed as inhibitors. purified cruzain, Z-FR-AMC fluorescence, 0.01% Triton. AID 1478; active = well fitted curve in the direction sought with a large enough effect; inconclusive = small, poorly fitted or top-dose-only effect, or another doubt; inactive = no such curve, though single readings can be large; an effect the other way counts as inactive or inconclusive;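 note: plate controls were neutral wells for no effect and buffer without enzyme for full effect; nearly all actives have a fitted effect of over 40% in size; top concentration of the series not given in the record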
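Detergent-containing run (0.01% Triton X-100) in acetate buffer pH 5.5 with 5 mM DTT: enzyme at 1.5 nM final, 15 min compound preincubation at room temperature, then 2 uM Z-FR-AMC substrate. Activity taken as 60 s fluorescence increase at 360/450 nm.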
RE007 growth inh – less growth of the S. pombe RE007 Vpr strain; actives 0.21% (n = 360,000); Potency, µM (doses to about 92.2 µM), for inactives: top-dose activity change, negative = less growth; S. pombe RE007 Vpr strain, BacTiter-Glo ATP luminescence, 24 h; control for the full effect not named in the record; active = well fitted falling curve with a large enough effect; inconclusive = small, poorly fitted or top-dose-only effect; inactive = no such curve, though single readings can be large or run the other way;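 note: % is set by controls: 0 for no effect and ±100 for the full control effect; nearly all actives have a fitted effect of over 50% in size; the assay follows cell death caused by Vpr and the record does not say whether a fall means rescue or toxicity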
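Fission yeast RE007 carrying one integrated HIV-1 vpr copy, seeded at OD 0.01 in PMG+AL medium with 23 nL pinned compound. Grown 24 h at 30 degrees; viability read by BacTiter-Glo luminescence after 5 min.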
MARV entry inh – blocks Marburg virus binding to or entry into cells; Marburg virus pseudotyped entry inhibition, cell reporter; control for the full effect not named in the record; about a third of the inactives were read at about 46 µM; Potency, µM (top dose mostly 37.8 µM), without a hit: top-dose activity change, negative = inhibition, usual class: inhibitors; actives 1.8% (n = 300,000); AID 540276; active = well fitted inhibition curve with a large enough effect; inconclusive = small, poorly fitted or top-dose-only effect, or effect the other way; inactive = flat fitted curve, though single readings scatter; tested in HEK293 cells; about a fifth of its hits are not listed in these tables; note: % is set by controls: 0 for no effect and ±100 for the full control effect; luciferase read-out
SARS PLP yeast – SARS-CoV PLP inhibition in yeast. actives 0.19% (n = 330,000). AID 485353. S. cerevisiae expressing SARS-CoV PLpro, growth rescue; control for the full effect not named in the record. Potency, µM (highest dose often 32.9 µM), for inactives: at the highest dose activity, positive = growth rescue; note: 0% is about no effect; nearly all actives have a fitted effect of over 55% in size; growth read by luminescence after 48 h
Starred values were filed as active, the others as inactive; ? = inconclusive; . = no result given; & = joins results of further samples; [ ] = remark or other dose. Unless noted, calls come from the whole dose curve; as a rule, active means well fitted rising curve with a large enough effect; inconclusive means small, poorly fitted or top-dose-only effect; inactive means no such curve, though single readings can be large or run the other way. Potency is the fitted concentration of half-maximal effect.

SMILES	Lassa entry inh	Cruzain noTriton	StopGo reporter	NS1 inh	Cruzain inh Det	RE007 growth inh	MARV entry inh	SARS PLP yeast
COCCNc1nc(N2CCCCC2)c2cnn(C)c2n1	.	.	-15.2%	1.5%	.	-6.2%	.	-8.6%
CCc1ccc(C(=O)c2cn(CC(=O)Nc3cccc(OC)c3)c3ccc(OC)cc3c2=O)cc1	-24.5%[46.1 µM]	-24.9%	9.2%	.	-8.5%	.	?	5.7%
O=C1CC2(CCN(C(=O)COc3ccccc3F)CC2)Oc2ccccc21	-10.8%[46.1 µM]	.	-25.3%	.	.	25.0%	20.9%	-0.2%
CC(=O)Nc1ccc(S(=O)(=O)NCCS(=O)(=O)N2CCN(c3ccccc3F)CC2)cc1	?	13.3%	?	-5.2%	-3.9%	-10.3%	-15.6%&-15.6%[46.1 µM]	-0.5%
COC(=O)Cc1c(O)ccn(CCc2ccc(S(N)(=O)=O)cc2)c1=O	.	.	-5.6%	?	.	4.2%	.	0.6%
Cc1oc2c(c1C(=O)N1CCC(C)CC1)C(=O)c1ccccc1C2=O	-26.1%	-5.5%	?	-0.4%	-2.2%	-7.2%	?	4.7%
CC(C)(Oc1ccc(Cl)cc1)C(=O)Nc1ccncc1	-14.3%	-0.2%	?	-36.1%	1.0%	-18.2%	?	-17.2%
COc1ccc2nc(NC(=O)CSc3nnnn3C3CCCCC3)sc2c1	-0.6%	8.4%	.	-47.0%	-5.2%	9.3%	2.6%	.
CCCCn1nc(C(=O)N(CC(C)C)c2c(N)n(CCCC)c(=O)[nH]c2=O)c2ccccc2c1=O	-9.9%	.	-19.3%	.	.	23.5%	7.3%	3.4%
CC1CN(CCOc2ccc(Cl)c(Cl)c2)CC(C)O1 (stereo unspecified)	1.7%[46.1 µM]	.	16.1%	-26.2%	.	-10.0%	-11.7%[46.1 µM]	3.5%
CCCc1nc(SCc2cccnc2)c2c(=O)n(C)c(=O)n(C)c2n1	.	-4.9%	?	-128.1%	-2.2%	-5.5%	.	-4.4%
COc1ccc(OC(C)C(=O)Nc2ccccc2C(F)(F)F)cc1 (stereo unspecified)	?	-0.4%	15.4%	-4.3%	-0.8%	-4.5%	?	5.0%
COc1ccc(-c2nnc(SC(C)C#N)o2)cc1 (stereo unspecified)	-18.3%	2.6%	35.8%[activator]	?	1.6%	-27.2%	-11.7%	14.2%
COc1cc(N2CCCC2)c(OC)cc1/C=C(/C#N)c1cccc(F)c1	-29.0%	-17.2%	-18.2%	11.1%	-11.1%	-23.3%	?	-9.9%
CC(C)CC(NC(=O)C1CCC(C)CC1)C(=O)Nc1ccc2c(c1)OCCO2 (stereo unspecified)	.	-11.0%	71.4%[activator]	19.8%	-1.1%	7.7%	.	-7.2%
O=C(Nc1ccccc1)c1c(F)c(F)c(F)c(F)c1F	-5.3%	-5.7%	.	3.9%	0.5%	-20.1%	1.0%	-10.5%
COc1ccc(NC(=O)C(c2ccc(C)cc2)N(C)C(=O)/C=C\c2ccc3c(c2)OCO3)cc1 (stereo unspecified)	?	-11.1%	3.3%	.	-5.6%	.	?	.
NC(=O)CSc1cn(Cc2ccccc2)c2ccccc12	.	.	-21.0%	.	.	10.2%	?	-0.4%
O=C(COc1ccc(Cl)cc1)NCc1nnc2c3ccccc3c(-c3ccccc3)nn12	.	1.2%	-13.8%	6.6%	-9.1%	10.7%	1.9%	9.4%
CC(C)(C)c1ccc(C(=O)N2CCN(C(=O)C3CCCCC3)CC2)cc1	?	.	?	-24.0%	.	5.8%	9.9%	11.0%
CCOc1ccc(/C=C/c2nc(C#N)c(Nc3ccc(OCC)cc3)o2)cc1	?	-26.5%	-4.6%	.	-1.3%	.	12.0%[46.1 µM]	.
Cn1c(SCC(=O)Nc2ccccc2)nnc1-c1ccc(NC(=O)CCc2ccccc2)cc1	-4.8%	-10.0%	-14.0%	3.7%	1.4%	-23.0%	-0.9%	-6.7%
Cc1ccccc1N(CC(=O)NCCSCc1ccco1)S(C)(=O)=O	5.6%	6.6%	.	?	-1.7%	-16.0%	-8.5%	0.1%
CC(C)Cc1cc(C(=O)Nc2cccc(O)c2)no1	.	.	-58.8%	-40.5%	.	-17.5%	.	-1.8%
O=C(COc1ccccc1)Nc1cccc(-c2nc3cc4ccccc4cc3[nH]2)c1	?	?	11.6%	-92.1%	3.4%	?	?	-30.0%
CC1CCCC(C)N1C(=O)CSc1nnnn1C1CCCC1 (stereo unspecified)	8.1%[46.1 µM]	.	29.9%	7.0%	.	12.2%	10.3%[46.1 µM]	4.3%
O=S(=O)(c1ccc(F)cc1)c1nc(-c2ccc(F)cc2)oc1NCCN1CCOCC1	?	13.6%	-18.9%	-4.4%	-2.5%	-27.2%	?	-3.4%
CCN(CC)c1ccc(-c2nc3cnccc3n2C)cc1	-24.5%	-14.5%	-18.4%	-16.3%	-7.3%	-20.9%	?	?
C=CCN(c1ccccc1OC)S(=O)(=O)c1cccc(C(=O)Nc2nnc(C3CC3)s2)c1	?	.	-10.8%	.	.	17.4%	?	2.4%
CCOC(=O)C1(C)C(C(=O)OC)=C(c2ccc(OC)cc2)c2ccccc2N1C(=O)OC (stereo unspecified)	.	?	-2.6%	.	0.3%	4.7%	.	12.9%
O=C(COC(=O)Cc1ccccc1F)Nc1ccc(F)cc1F	1.2%	.	8.2%	0.3%	.	-13.9%	7.9%	-0.1%
Cc1ccc(NC(=O)CSc2nc3ccccc3c3nc(CCn4cncc4C)nn23)c(C)c1	-9.8%[46.1 µM]	9.1%&21.8%	-11.1%&-11.2%	-2.0%	0.3%&-0.9%	-21.3%	?	9.5%
COC(=O)CNC(c1ccccc1)c1cc(Br)ccc1NC(=O)c1ccccc1 (stereo unspecified)	-28.1%[46.1 µM]	-1.1%	-11.2%	.	-6.4%	.	.	.
O=C(c1ccc(=O)oc1)N1CCN(c2ccc(F)cc2)CC1	-0.3%	6.7%	4.1%	5.2%	-6.6%	-1.0%	15.7%	-1.3%
COCCCN1C(=O)N(c2ccc(F)cc2)C(=O)C1CC(=O)Nc1ccccc1 (stereo unspecified)	.	.	5.4%	-0.9%	.	-10.8%	.	0.3%
COc1ccc(-c2csc(NC(=O)C3CCCCN3S(=O)(=O)c3ccccc3)n2)cc1 (stereo unspecified)	15.8µM*	?	-63.0%	18.1%	2.4%	14.6%	?	0.1%
COCCn1c(=O)[nH]c2cc(C(=O)NCCN3CCN(c4ccccc4)CC3)ccc2c1=O	-2.5%	-1.3%	-15.5%	-0.9%	0.5%	-7.8%	3.3%&3.3%	-4.0%
CCOc1ccc(CNC(=O)C2CCN(C(=O)N3CC(C)Oc4ccccc43)CC2)cc1 (stereo unspecified)	.	.	-25.5%	-16.0%	.	0.2%	.	-2.4%
CC1CCc2cc(F)ccc2N1C(=O)CCl (stereo unspecified)	-2.9%	.	14.1µM*	.	.	0.9%	?	2.2%
CCOC(=O)Cn1nc(C)cc1NC(=O)c1cccnc1	4.8%	.	15.0%	.	.	-3.8%	-1.9%	-0.1%
Cc1ccc(S(=O)(=O)N(C)CC(=O)N2CCN(C(=O)c3ccco3)CC2)cc1	-14.8%	-3.5%	-16.5%	-3.4%	3.5%	-12.9%	15.2%[46.1 µM]	4.3%
CC(C)NC(=O)c1cc(-c2ccco2)nn1-c1ccc(Cl)cc1	0.2%	-11.8%	-2.5%	12.3%	-6.2%	-8.2%	-8.1%	-1.6%
Cc1ccc(OCC(=O)N(c2ccccn2)C2CCCCC2)c(C)c1	5.1%	-6.0%	-9.4%	-15.2%	0.6%	.	-1.7%	-3.3%
CC(=O)Nc1ccc(SCC(=O)Nc2cc(C)on2)cc1	-13.8%	.	11.1%	.	.	4.2%	?	2.0%
COC(=O)c1c([N+](=O)[O-])c(OC)c(OC)c(OC)c1[N+](=O)[O-]	-13.5%[46.1 µM]	.	-11.7%	.	.	-3.2%	1.7%[46.1 µM]	2.1%
CCOc1ccc(Nc2nc(Cc3nnc(SCC(=O)NC4CCCCC4)n3C)cs2)cc1	?	?	.	4.7%	-3.5%	6.2%	-4.7%	-0.3%
Cn1cnnc1-c1cccc(NC(=O)c2cc(F)c(F)cc2Cl)c1	19.4%[46.1 µM]	.	-13.2%	-2.4%	.	-2.5%	-17.8%[46.1 µM]	0.6%
COc1ccc(CNC(=S)Nc2ccccc2)cc1	22.3%	.	58.9%[activator]	?	.	4.0%	0.6%	22.8%
CNc1nc2[nH]c(=O)c3c(c2s1)OC(N)=C(C#N)C3c1ccccc1 (stereo unspecified)	?	-5.2%	-25.2%	-1.1%	-5.9%	2.5%	39.5%	-13.7%
O=C1CN(S(=O)(=O)c2cccc(Cl)c2Cl)c2ccccc2N1	17.5%[46.1 µM]	.	0.4%	15.4%	.	-13.8%	-2.1%[46.1 µM]	-0.6%
COc1ccc(C(=O)/C=C/c2cn(CC(O)CN3CCCCCC3)c3ccccc23)cc1OC (stereo unspecified)	?	-0.9%	-20.4%	.	-9.9%	.	?	.
O=C(c1cnn2c(C(F)(F)F)cc(-c3cccs3)nc12)N1CCCC1	.	.	0.0%	2.8%	.	0.0%	.	-0.8%

Pulled by compound from the entries so far:
SMILES	Lassa entry inh	Cruzain noTriton	StopGo reporter	NS1 inh	Cruzain inh Det	RE007 growth inh	MARV entry inh	SARS PLP yeast
CC(C)NC(=O)c1cc(-c2ccco2)nn1-c1ccc(Cl)cc1	0.2%	-11.8%	-2.5%	12.3%	-6.2%	-8.2%	-8.1%	-1.6%
COc1ccc(CNC(=S)Nc2ccccc2)cc1	22.3%	.	58.9%[activator]	?	.	4.0%	0.6%	22.8%
Cc1ccc(OCC(=O)N(c2ccccn2)C2CCCCC2)c(C)c1	5.1%	-6.0%	-9.4%	-15.2%	0.6%	.	-1.7%	-3.3%
O=C(c1cnn2c(C(F)(F)F)cc(-c3cccs3)nc12)N1CCCC1	.	.	0.0%	2.8%	.	0.0%	.	-0.8%
